# Ba CapD inh – CapD enzyme inhibition. purified CapD enzyme, fluorescence intensity read-out; stronger effect = lower value; some hits fall short of the stated cut. actives 0.23% (n = 140,000). z-score (no concentration beside the values);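 active = z-score under -4 in either of two replicates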;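 also: stock transfer was 100 nL into about 40 µL; score is relative to mean and spread of the plate; one replicate is shown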
# AID504770 – E. coli YBA685 growth inhibition, screen for V. cholerae RctB inhibitors | z-score (test concentration not listed) | E. coli YBA685 rctB-dependent plasmid, OD600 growth, 3 h; stronger effect = lower value | actives 0.27% (n = 130,000);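 active = z-score under -2 on both plates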;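 also: wells of about 30 µL received 100 nL stock; score is relative to mean and SD of the test wells; the first replicate is given; strong numbers were not always called active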
# The depositor's hits bear a star; x = no result given.
canonical_smiles	AID504770	Ba CapD inh
CCC(C)CCCCC(=O)NC(CCN)C(=O)NC(C(=O)NC(CCN)C(=O)NC1CCNC(=O)C(C(C)O)NC(=O)C(CCN)NC(=O)C(CCN)NC(=O)C(CC(C)C)NC(=O)C(Cc2ccccc2)NC(=O)C(CCN)NC1=O)C(C)O (stereo not drawn)	-5.2*	0.055
O=C(NCC1CCCO1)c1ccc2c(=O)n(CC3CCCO3)c(SCc3ccc([N+](=O)[O-])cc3)nc2c1 (stereo not drawn)	x	-0.035
Cc1nc(/C(N)=N/OC(=O)c2cc3c([nH]c4ccccc43)c(C)n2)no1	0.25	22
CSc1nnc(-c2ccccc2NC(=O)/C=C/c2ccccc2)o1	-0.1	x
COC(=O)/C=C1\S/C(=N\S(=O)(=O)c2ccccc2)N(c2ccccc2)C1=O	-0.1	12
COc1ccc(CCNC(=O)c2cnn3ccccc23)c(OC)c1OC	0.9	-0.28
CCOc1ccccc1C(=O)NCC(=O)O	-0.25	0.43
CCC/C(O)=C1/C(=O)CC(c2ccccc2)CC1=NCc1ccccc1 (stereo not drawn)	0.1	-0.42
CCN1CCCC1CNC(=O)Nc1c[nH]c2ccc(OC)cc2c1=O (stereo not drawn)	-1.9	x
c1ccc2c3nnc4n(c-3nc2c1)CCS4	-1.3	-0.63
CN(CC(=O)Oc1ccc2c(c1)OCO2)S(=O)(=O)c1ccc(F)cc1	0.1	x
CSc1ncc(C(=O)NNC(=O)OCCN2CCN(Cc3cc4ccccc4o3)CC2)n1C	x	-0.47
O=C(O)c1scc2c1OCCO2	1.7	x
N=c1scc(-c2ccc(Cl)cc2)n1-c1cc(Cl)c(Cl)cc1Cl	x	0.75
Cc1cc2c(c(=O)o1)C1(C(=O)Nc3ccc(C)c(Br)c31)C(C#N)=C(N)O2 (stereo not drawn)	x	-0.48
CCCC(C)N1C(=O)CC(=O)NC1=S (stereo not drawn)	0.55	x
CC1=CC(C)(C)N(C(=O)CSc2nc3ccccc3[nH]2)c2ccccc21	x	0.12
O=C(Oc1ccc(Br)cc1)c1cccnc1	-0.4	1.9
COc1ccc(N(Cc2nc3ccccc3s2)S(=O)(=O)c2ccc3c(c2)OCCO3)cc1	0.1	x
Cc1ccc(Sc2ncccc2C(=O)O)cc1	x	0.14
CSCC(=O)Nc1ccc(C)cc1Br	0.7	x
Cc1nn(-c2ccccc2)c2sc(C(=O)NC3CCS(=O)(=O)C3)cc12 (stereo not drawn)	-0.5	x
CC(=O)Nc1ccc(NS(=O)(=O)c2cc(S(=O)(=O)Nc3ccc(NC(C)=O)cc3)c3cccc4c3c2NC4=O)cc1	x	-0.25
O=C(O)C1CCCN1c1ncccn1 (stereo not drawn)	-0.5	x
CN(C(=O)c1c(F)cccc1Cl)C1CCCCC1	0.35	-0.44

# Three structures from above, ordered by length of the SMILES, largest number first:
canonical_smiles	AID504770	Ba CapD inh
CC(=O)Nc1ccc(NS(=O)(=O)c2cc(S(=O)(=O)Nc3ccc(NC(C)=O)cc3)c3cccc4c3c2NC4=O)cc1	x	-0.25
CCCC(C)N1C(=O)CC(=O)NC1=S (stereo not drawn)	0.55	x
CSCC(=O)Nc1ccc(C)cc1Br	0.7	x

# Continuation:
canonical_smiles	AID504770	Ba CapD inh
NS(=O)(=O)c1ccc(NS(=O)(=O)/C=C/c2ccccc2)cc1	0.35	0.055
O=C(/C=C/c1cccs1)Nc1ccc(F)cc1F	0.75	-2
CCOC(=O)c1cnn(-c2ccccc2)c1-n1cccc1	1.7	-0.47
O=C1Nc2ccc(S(=O)(=O)NCc3ccc4c(c3)OCO4)cc2C1C1CCCC1 (stereo not drawn)	-0.85	-0.2
O=S(=O)(Cc1ccc(Cl)cc1)NCc1cccs1	0.45	-0.18
O=C(CSc1nccc(-c2cccs2)n1)c1ccc2c(c1)OCCCO2	0.35	-0.79
COC(=O)C(CSc1cc(Cl)nc(Cl)c1)NC(=O)OC(C)(C)C (stereo not drawn)	x	-0.3
CCN1C[C@]2(C)CC[C@H](O)[C@@]34C5C[C@@H]6[C@@H](OC)C[C@@](O)(C5[C@H]6O)[C@@H](CC23)[C@@H]14 (stereo partly drawn)	-0.85	0.1
COc1cc(O)c(/C=N/NC(=O)c2ccco2)c(OC)c1	x	-2.6
CCOC(=O)C1=C(C)N=c2s/c(=C/c3ccc(N4CCOCC4)o3)c(=O)n2C1c1cc(OC)ccc1OC (stereo not drawn)	x	-0.69
Cc1nc(-c2ccc(S(=O)(=O)N3CCCN(C(=O)OC(C)(C)C)CC3)s2)cs1	0.1	0.39
CCSC1=C(C#N)C(=O)NC(c2ccc(O)cc2)S1 (stereo not drawn)	-1.4	-2.8
Cc1ccccc1NS(=O)(=O)c1ccc2[nH]cc(C(=O)NC3CCCC3)c(=O)c2c1	0.15	1.7
Cc1cc(=O)oc2c1cc(NC(=O)c1ccccc1)c1occ(OC(=O)c3ccccc3)c12	0.15	31
N#Cc1c(-c2cccc(O)c2)c(C#N)c2nc3ccccc3n2c1N	-0.25	4.2
O=c1c(CN2CCN(c3ccccn3)CC2)cc2cccc3c2n1CCC3	x	5.4
CC1CCCCC1NC(=O)COc1ncnc2sccc12 (stereo not drawn)	-0.1	x
COc1ccc2c(c1)CC/C(=C\c1ccc(C)o1)C2=O	0.65	-1
CC(C)C(=O)Nc1c(C(=O)c2ccc(Br)cc2)oc2ccccc12	1.1	1.7
COC(=O)N/N=C\c1c(C)n(C)c2ccccc12	0.2	-0.95
C=C(C)CSc1nc(C)cc(C)c1C#N	-0.05	x
N#CC(C#N)=C(N)COc1cccc(C(F)(F)F)c1	-0.2	-0.28
COC(=O)c1cc(S(=O)(=O)Nc2nn(C)c3ccccc23)oc1C	-0.45	1.6
CC(CC(=O)Nc1ccc(Cl)cc1)S(=O)(=O)c1ccc(Cl)cc1 (stereo not drawn)	-1.7	-0.94
O=C(/C=C/c1cccs1)OCC(=O)c1cc2ccccc2o1	1.4	x
Cc1ccc(OCc2cn3cccnc3n2)cc1	-0.65	11
CN(Cc1ccccc1)C(=O)CCCn1c(=O)[nH]c2cc(Cl)ccc2c1=O	-0.4	0.56
C/C(=N\O)c1cc2ccc(O)cc2oc1=O	-0.7	x
N#Cc1ncoc1-c1ccc(Cl)cc1	-0.5	-0.61
Nn1c(-c2cccs2)n[nH]c1=S	1.3	x
Cc1cccc(NC(=O)Cc2csc(C)n2)c1	-0.2	0.16
CC(C)Cn1c(SCC(=O)N(C)C2CCCCC2)nc2ccccc2c1=O	-0.3	x
Nc1c(-c2ccccc2)cnn1-c1ccc2c(C(F)(F)F)cc(C(F)(F)F)nc2n1	-0.2	-0.24
Cc1ccc(-n2ncc3c(NC(C)C)ncnc32)cc1	-1.3	1.3
Cc1[nH]n(-c2nc3ccccc3[nH]2)c(=O)c1C1OC(=O)c2ccccc21 (stereo not drawn)	-0.65	-0.005
CCN1CCN(C(=O)c2sc3nc4n(c(=O)c3c2C)CCC4)CC1	0	0.015
CC(CO)Oc1ccc(-c2ccc(-c3ccc(OC(C)CO)cc3)c(F)c2)cc1 (stereo not drawn)	x	24
O=C(O)CC1Oc2ccccc2NC1=O (stereo not drawn)	0.6	-0.16
O=c1cc(C(F)(F)F)nc2c(-c3ccccc3)c(C(F)(F)F)[nH]n12	-0.25	120
O=C(OCc1cccc(OC(F)(F)F)c1)N1CCN(Cc2ccccc2Sc2ccc(Cl)cc2)CC1	x	0.25
O=C(CCn1c(=O)sc2ccccc21)n1c(=O)sc2ccccc21	1.8	0.77
CCOC(=O)c1c(/C=C2\C(=O)Nc3ccccc32)c(C)n(Cc2cccs2)c1C	-0.05	-1.2
CC1=C(C(=O)OC(C)(C)C)C2(C(=O)Nc3ccc(Cl)cc32)C(C#N)=C(N)O1 (stereo not drawn)	x	-0.22
CCN1C(=O)CC(C(=O)Nc2ccc(F)cc2)SC1=Nc1cccc(C(F)(F)F)c1 (stereo not drawn)	x	0.21
O=c1cc(O)c2sc3nc4c(c(C(F)(F)F)c3c2[nH]1)CCC4	-0.85	x
O=C(N/N=C/c1ccccc1)c1cc(-c2ccccc2)n[nH]1	0.5	-0.34
C=CCN1C(=Nc2ccccc2)SC/C1=C\C(=O)OC	0.45	x
Fc1ccc(C2=NNC3=NCCN3C2)cc1F	-0.4	2.2
COc1ccccc1C(=O)COC(=O)c1ccc(Br)cc1	1.7	0.47
Nc1ccn(-c2ccccc2)n1	1	x

# (list continues)
canonical_smiles	AID504770	Ba CapD inh
N#CCCCN(Cc1ccccc1)Cc1ccccc1	-0.25	-0.1
N#CC1(NC(=O)CSc2nnc(-c3cccs3)n2C2CC2)CCCCC1	0	x
O=S(=O)(c1ccccc1)c1nc(-c2ccco2)oc1Nc1ccccc1	-0.35	1.6
CCC(=O)N1c2ccccc2C(N(C(=O)c2ccccc2)c2cccc([N+](=O)[O-])c2)CC1C (stereo not drawn)	x	-0.085
CCCn1nc2ccccc2c1P(=O)(N1CCOCC1)N1CCOCC1	-1.9	x
CCCCCCC(=O)Nc1cccc(C(=O)N/N=C/c2cc(OC)c(O)c(OC)c2)c1	x	1.4
O=C(N1CCC2(CC1)OCCO2)C(F)(F)F	2.8	-0.7
COC(=O)c1ccc2c(c1)sc1nc(-c3ccc(OC)cc3)cn12	0.4	7.6
CCN(CC)C(=O)c1ccc(NC(=O)Cc2c[nH]c3ccccc23)cc1	-0.6	x
COc1ccc(-c2c(C)oc3cc(OCCN4CCOCC4)ccc3c2=O)cc1	0.1	x
Cc1cc(C(=O)NCc2nnc3ccccn23)c(C)o1	-0.25	x
CCCCN1C(=O)c2ccc(C(=O)C(C#N)c3nc4ccccc4[nH]3)cc2C1=O (stereo not drawn)	-0.2	x
O=C(CCS(=O)(=O)c1ccccc1)N1CCOCC1	-0.15	-0.55
N#C/C(=C\C(=O)O)c1cccs1	0.6	-0.02
CN1CCN(c2ccc(N)cc2)CC1	0.15	x
c1cc2c(cc1NC1=NCCCCC1)OCCO2	-0.65	0.14
COC(=O)c1c(C)noc1-c1ccc(C(F)(F)F)cc1	-1.7	0.56
O=C(CO)c1ccc(Cl)cc1	x	0.15
COCCn1c(CCC(=O)O)ccc1-c1ccccc1	-1.5	23
O=C(Cn1c(=O)n(-c2ccccc2)c(=O)c2sccc21)NCc1ccco1	-0.25	0.74
N#C/C(=C/c1ccc(O)cc1)c1nnc2n1CCCCC2	x	-0.5
CCCS(=O)(=O)c1c(S(=O)(=O)CCC)c2cc(-c3ccncc3)ccn2c1C(=O)N/N=C/c1cc(OC)c(OC)c(OC)c1	x	-0.21
O=c1oc(-c2cc3ccccc3s2)ns1	-0.25	1.2
Cc1csc(C(=O)NNC(=O)OCc2cc3c(cc2[N+](=O)[O-])OCO3)c1Cl	x	0.39
Cc1cc(NS(=O)(=O)c2ccc(N3C(=O)C4C5C=CC(C5)C4C3=O)cc2)nc(C)n1 (stereo not drawn)	-0.55	0.51
O=C(NCCCCc1ccccc1)C1CCN(c2ccc(C(F)(F)F)cn2)CC1	x	0.95
COc1ccc(OCCSc2ncccn2)cc1	-1.8	0.095
O=C(CCC1CCCCC1)Nc1cc(Cl)ccc1N1CCOCC1	1.2	x
COc1cccc(-c2cc(C(=O)NCCCn3ccnc3)c3ccccc3n2)c1	x	9.6
Cc1ccc(S(=O)(=O)NCC(=O)OCc2nnc(-c3ccccc3)o2)cc1C	-0.3	x
CC1(C)CC2(CCO1)N1CC3([N+](=O)[O-])CN2CC([N+](=O)[O-])(C1)C3(C)C (stereo not drawn)	x	-0.36
CCC(C)(C)c1cc2cc(NS(=O)(=O)c3ccc([N+](=O)[O-])cc3)ccc2[nH]1	x	-0.58
CCC(C)NC(=O)C1CC1c1ccccc1 (stereo not drawn)	0.3	0.41
CC(C)CNC(=O)c1ccc(N(C)C)cc1	-1.2	x
CC(OCCCN)c1ccccc1 (stereo not drawn)	0.3	x
COc1ccccc1CCN=C(N)NS(C)(=O)=O	0.55	x
Cc1cc(C)nc(NCn2c(=S)sc3ccccc32)n1	0.3	x
Cc1nc(SC2CCCCC2=O)c(C#N)c(-c2cccs2)c1C(=O)Nc1ccccc1 (stereo not drawn)	x	-0.2
Cc1ccc(NC(=O)CN(C)C(=O)c2cccc(S(=O)(=O)N3CCOCC3)c2)cc1	-0.05	x
Cn1nccc1C(=O)Nc1ccc(CC#N)cc1	0.6	-0.37
O=C1CCC(=O)N1CNc1ccc(-c2ccccc2)cc1	-0.45	4.2
CN(C)C(=O)CSc1nnc(Nc2ccccc2)n1-c1ccccc1	1.6	-0.83
CCN(CC)C(=S)NC(=S)c1ccc(C)cc1	1.3	-0.23
CCN(CC)c1nc(C)nc2sc(C(=O)N3CCN(c4ccccc4)CC3)c(C)c12	x	0.14
Cc1ccc(OCc2ccc(C(=O)Nc3ncc(Br)s3)o2)cc1C	1.2	0.83
NCCCn1cncn1	0.2	x
COc1ccc(-c2cc(-c3ccccc3)nc(SCC(=O)N3CCCCC3)c2C#N)cc1	-0.1	37
c1ccc2c(c1)C(=NN1CCOCC1)c1ccccc1-2	-0.25	x

# Whole records, quoted from the list:
# `O=C(CCC1CCCCC1)Nc1cc(Cl)ccc1N1CCOCC1` is listed as AID504770 = 1.2; Ba CapD inh = x
# `c1ccc2c(c1)C(=NN1CCOCC1)c1ccccc1-2` is listed as AID504770 = -0.25; Ba CapD inh = x

# Compound activity: PubChem, ICCB-Longwood Screening Facility, Harvard Medical School

# Random draw from the library; 0.37% or so of the library scored in one or more.
